A647 fluor: compound autofluorescence in A647 spectral region | Compound fluorescence, A647 channel (570/671 nm), Tris buffer | max dye-equivalent concentration, M | 59,000 tested, under 10 active | AID 592; active means above 1 µM dye equivalent; inconclusive means 0.1 to 1 µM; inactive means 0.1 µM or less;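 note: values scaled relative to a standard on each plate; highest value over a series up to 38 µM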
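Spectral profiling of library compounds in pH 8.0 Tris: 15 min room-temperature incubation, single ex/em pair (570/671 nm), response normalized to Alexa 647 equivalents.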
AID923: qHTS Assay for Allosteric/Competitive Inhibitors of Caspase-1: Spectroscopic Profiling in AFC Spectral Region. compound fluorescence, AFC spectral region (405/520 nm); almost no hit is shown here. Potency, µM (highest dose often 57.5 µM), without a hit: at the top dose fluorescence increase, actives largely listed as activators. 75,000 compounds, 1.1% hits; active = well fitted activation curve with a large enough effect; inconclusive = small, poorly fitted or top-dose-only effect;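 note: potency is the fitted concentration of half-maximal effect; 0% is about no effect; scaled to a free AFC standard on each plate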
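Compound autofluorescence profiled at 405 nm ex/520 nm em during kinetic caspase 1 run (50 nM enzyme, 5 uM Ac-WEHD-AFC, HEPES pH 7.5, 10 mM DTT). Titration up to 57 uM; baseline from regression intercept, normalized to AFC standard curve.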
A488 fluor: compound fluoresces in the A488 spectral region | compound autofluorescence, A488 spectral region, dye equivalency; stronger effect = higher value | max dye equivalency, M | 59,000 compounds, 0.1% hits; active = above 10 nM dye equivalent; inconclusive = 1 to 10 nM; inactive = 1 nM or less; about half of its hits are not listed in these tables;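 note: highest value over a series up to 38 µM; compound alone in buffer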
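Compound autofluorescence was read in 100 mM Tris pH 8.0 after 15 min at room temperature, ex 480 nm/em 540 nm. Intensities were converted to A488 dye-equivalent concentration using an on-plate six-point A488 standard curve.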
TSHR agonist: agonists of human thyroid stimulating hormone receptor; Potency, µM (series often up to 57.1 µM), without a hit: top-dose activation, usual class: activators; 73,000 compounds, 0.48% hits; P16473; HEK293-CNG-TSHR cells (CNG channel as cAMP sensor), membrane potential dye, cAMP; active = well fitted activation curve of enough size with the parental cells flat; inconclusive = any curve in the parental cells; inactive = parental cells flat and receptor cells flat or falling; note: potency is the fitted concentration of half-maximal effect; % of control where 0% means no effect; weak receptor curves with flat parental cells got no call and are not listed
Target sequence (P16473 whole entry, looked up): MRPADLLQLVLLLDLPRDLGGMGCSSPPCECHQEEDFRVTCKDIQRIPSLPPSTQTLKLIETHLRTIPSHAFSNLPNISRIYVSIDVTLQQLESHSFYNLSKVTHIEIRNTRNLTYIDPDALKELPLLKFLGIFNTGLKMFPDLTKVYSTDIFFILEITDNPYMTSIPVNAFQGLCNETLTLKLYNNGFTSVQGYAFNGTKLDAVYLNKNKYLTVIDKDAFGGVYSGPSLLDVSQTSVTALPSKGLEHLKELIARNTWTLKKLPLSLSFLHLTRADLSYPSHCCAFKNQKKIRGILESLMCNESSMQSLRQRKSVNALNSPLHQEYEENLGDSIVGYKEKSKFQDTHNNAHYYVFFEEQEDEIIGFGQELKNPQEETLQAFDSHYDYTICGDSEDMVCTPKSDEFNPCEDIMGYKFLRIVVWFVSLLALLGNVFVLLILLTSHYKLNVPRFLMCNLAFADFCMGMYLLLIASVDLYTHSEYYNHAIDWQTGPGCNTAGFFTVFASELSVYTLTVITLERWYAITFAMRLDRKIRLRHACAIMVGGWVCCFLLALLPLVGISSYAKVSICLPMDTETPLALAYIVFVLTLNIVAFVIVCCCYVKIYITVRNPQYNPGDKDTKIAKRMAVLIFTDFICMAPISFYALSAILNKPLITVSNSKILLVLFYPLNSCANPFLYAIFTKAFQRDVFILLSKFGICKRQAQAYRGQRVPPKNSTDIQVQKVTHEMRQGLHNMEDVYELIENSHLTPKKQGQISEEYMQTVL
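cAMP rise detected as CNG-channel membrane depolarization by fluorescent dye (emission 590 nm), 30 min after compound, following 60 min dye loading containing 100 uM RO 20-1724 at room temperature. Cells: TSHR/CNG HEK 293, with parental CNG HEK 293 as control.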
Resorufin autofl: resorufin region autofluorescence; Compound fluorescence, resorufin region 547/598 nm, buffer; stronger effect = higher value; max dye-equivalent concentration, M; 59,000 compounds, 0.04% hits; AID 588; active = above 10 nM dye equivalent; inconclusive = 1 to 10 nM; inactive = 1 nM or less; a few of its hits are not listed in these tables; note: highest value over a series up to 38 µM
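Compounds in 100 mM Tris buffer, pH 8.0, incubated 15 min at room temperature, then read with 547 nm excitation and 598 nm emission filters. Fluorescence was converted to dye-equivalent concentration using an on-plate six-point resorufin standard curve.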
Active calls of the source: *; [ ] = another dose, or the depositor's remark.

Screening CCOc1ccccc1NC(=O)C1C2C=CC(O2)C1C(=O)O (centres undefined) returned A647 fluor 1e-09, AID923 0.0%, A488 fluor inactive, TSHR agonist inconclusive and Resorufin autofl inactive.
Screening N#Cc1c(NC(=O)CCCN2C(=O)c3ccccc3C2=O)oc(-c2ccccc2)c1-c1ccccc1 returned AID923 -0.2% and TSHR agonist inconclusive.
`CC1CCCCC1NC(=O)CN1C(=O)NC(C)(c2ccc(OC(F)F)cc2)C1=O` (centres undefined) gave A647 fluor 3.5e-09, AID923 0.4%, A488 fluor inactive, TSHR agonist -5% and Resorufin autofl inactive.
For O=C(Cc1ccccc1)Nc1nc2ccccc2[nH]1 the results were A647 fluor 2.2e-08, AID923 -0.1%, A488 fluor inactive, TSHR agonist 1% and Resorufin autofl inactive.
Screening N[C@H](C(=O)O)[C@H](N)C(=O)O returned A647 fluor 1.4e-09, AID923 0.9%[11.5 µM], A488 fluor inactive, TSHR agonist 8%[11.4 µM] and Resorufin autofl inactive.
`Cn1c(C(O)c2ccccc2F)nc(Cl)c1Cl` (centres undefined) gave A647 fluor 2.3e-08, AID923 0.0%, A488 fluor inactive, TSHR agonist -6% and Resorufin autofl inactive.
COc1cc2cc(C(c3nnnn3C3CCCC3)N3CCCCC3)c(=O)[nH]c2cc1OC (centres undefined) was read as A647 fluor 6.4e-09, AID923 -2.1%, A488 fluor inactive, TSHR agonist inconclusive and Resorufin autofl inactive.
Screening CC(CN1CCOCC1)OC(=O)c1ccccc1Br (centres undefined) returned A647 fluor 1e-09, AID923 -1.0%, A488 fluor inactive, TSHR agonist 7% and Resorufin autofl inactive.
Screening C=C(C)Cn1c(SCC(=O)O)nnc1-c1ccc(C(C)(C)C)cc1 returned AID923 0.1% and TSHR agonist -2%.
Screening CC(=O)c1cccc(NC(=O)N2CCCC2C(=O)NCCC(C)C)c1 (centres undefined) returned A647 fluor 2.9e-09, AID923 1.3%, A488 fluor inactive, TSHR agonist 29% and Resorufin autofl inactive.
`Cc1cc(Nc2ccc(F)cc2F)n2nc(C)nc2n1` gave AID923 -3.0% and TSHR agonist 8%.
`COc1ccc(OC)c(S(=O)(=O)NCCC2=CCCCC2)c1` gave A647 fluor 1e-09, AID923 -0.5%, A488 fluor inactive and Resorufin autofl inactive.
`O=C(Nc1ccccc1Sc1ccccc1)C1CCCO1` (centres undefined) gave A647 fluor 1.1e-08, AID923 -0.6%, A488 fluor inactive, TSHR agonist 16% and Resorufin autofl inactive.
CO[C@H]1COC(=O)CCC[C@@H](C)[C@H](OC)COC(=O)[C@H]2CCCN2C(=O)C/C=C\[C@@H]1C was read as AID923 -1.3%[11.5 µM] and TSHR agonist -9%[11.4 µM].
`CC1CCC2C(=O)N3C(CCC(C)[C@H]3c3cccc(N4CCCC4=O)c3)C(=O)N2C1c1cccc(N2CCCC2=O)c1` (some centres undefined) gave AID923 -2.0%[11.5 µM] and TSHR agonist -12%[11.4 µM].
N=C(N)SCCc1ccc(CCSC(=N)N)cc1 was read as A647 fluor 3.4e-09, AID923 -1.7%, A488 fluor inactive, TSHR agonist 4% and Resorufin autofl inactive.
NC(=O)c1c(NC(=O)CSc2nnc(-c3ccccc3)n2CC2CCCO2)sc2c1CCC2 (centres undefined) was read as A647 fluor 1e-09, AID923 10.0%, A488 fluor inactive, TSHR agonist 12% and Resorufin autofl inactive.
Nc1nc2c(s1)C(=O)CCC2 was read as A647 fluor 1e-09, AID923 -2.5%, A488 fluor inactive, TSHR agonist -7% and Resorufin autofl inactive.
Screening CCn1c(COc2cccc(OC)c2)nnc1SCC(=O)Nc1cccc(OC)c1 returned A647 fluor 4.3e-08, AID923 -0.7%, A488 fluor inactive, TSHR agonist 22% and Resorufin autofl inactive.
`CC(=O)C(Sc1ccc2nnc(-c3ccc(C)cc3)n2n1)C(C)=O` gave AID923 0.9% and TSHR agonist 6%.
O=C(NCCN1C(=O)C2C3C=CC(C3)C2C1=O)N1CCOCC1 (centres undefined) was read as AID923 0.3% and TSHR agonist 2%.
`CCN1CCCC1Cn1c(-c2ccccc2)nc2c(NCCOC)nc(C)nc21` (centres undefined) gave AID923 -1.6% and TSHR agonist -1%.
Screening COC(=O)Nc1nnc(SCc2ccc(C)cc2)s1 returned A647 fluor 3.2e-08, AID923 -0.6%, A488 fluor inactive, TSHR agonist 20% and Resorufin autofl inactive.
Screening Cn1c(=O)[nH]c(=O)c2c1nc(N1CCOCC1)n2CCSc1ncccn1 returned A647 fluor 1e-09, AID923 -1.7%, A488 fluor inactive, TSHR agonist -17% and Resorufin autofl inactive.
Screening COc1cccc(-n2nnc3c(=O)n(Cc4ccccc4Cl)cnc32)c1 returned A647 fluor 1e-09, AID923 -1.3%, A488 fluor inactive, TSHR agonist inconclusive and Resorufin autofl inactive.
Screening CC(C)N1C(=O)C2C(C(=O)NC3CCCCC3)C3C=CC2(O3)C1C(=O)NC1CCCC1 (centres undefined) returned A647 fluor 5.1e-08, AID923 0.3%, A488 fluor inactive, TSHR agonist 2% and Resorufin autofl inactive.
`O=C(O)CN(c1ccccc1)C1SC(=O)NC1=O` (centres undefined) gave A647 fluor 4e-08, A488 fluor inactive and Resorufin autofl inactive.
For Cc1ccc2c(C)nc(Nc3ncc4c(n3)CCCC4=O)nc2c1 the results were A647 fluor 1e-09, AID923 1.2%, A488 fluor inactive, TSHR agonist 0% and Resorufin autofl inactive.
c1ccc2[nH]c(SCc3ccc(-c4nnco4)cc3)nc2c1 was read as A647 fluor 3.1e-08, AID923 -0.9%, A488 fluor inactive, TSHR agonist 14% and Resorufin autofl inactive.
Brc1ccc2c(c1)CNc1c(ncnc1N1CCOCC1)O2 was read as A647 fluor 4.8e-09, A488 fluor inactive and Resorufin autofl inactive.
For CSc1ccc(-c2nc(CSCC(=O)N3CCOCC3)c(C)o2)cc1 the results were A647 fluor 1.2e-08, AID923 -0.4%, A488 fluor inactive, TSHR agonist -3%[11.4 µM] and Resorufin autofl inactive.
For CCSc1nc(-c2ccc(OC)cc2)n(-c2nc3ccccc3s2)n1 the results were A647 fluor 2.5e-08, AID923 0.1%, A488 fluor inactive, TSHR agonist 35% and Resorufin autofl inactive.
Cc1cnc(C(=O)Nc2nnc(C(C)C)s2)cn1 was read as A647 fluor 3.4e-09, AID923 -0.3%, A488 fluor inactive, TSHR agonist 3% and Resorufin autofl inactive.
For Cc1cccc(-n2ncc3c(NC4CCCCC4)ncnc32)c1 the results were AID923 -4.3% and TSHR agonist inconclusive.
`CCC(CC)C(=O)NCc1ccccc1OC` gave AID923 -0.4% and TSHR agonist 5%.
`CC(=O)c1cccc(-n2nnnc2SCC(=O)Nc2cccc(NC(=O)c3ccco3)c2)c1` gave A647 fluor 1e-09, AID923 1.1%, A488 fluor inactive, TSHR agonist 2% and Resorufin autofl inactive.

Sorted by molecular weight (ascending): 4 of the compounds above
`O=C(Nc1ccccc1Sc1ccccc1)C1CCCO1` (centres undefined) gave A647 fluor 1.1e-08, AID923 -0.6%, A488 fluor inactive, TSHR agonist 16% and Resorufin autofl inactive.
Brc1ccc2c(c1)CNc1c(ncnc1N1CCOCC1)O2 was read as A647 fluor 4.8e-09, A488 fluor inactive and Resorufin autofl inactive.
`CC1CCCCC1NC(=O)CN1C(=O)NC(C)(c2ccc(OC(F)F)cc2)C1=O` (centres undefined) gave A647 fluor 3.5e-09, AID923 0.4%, A488 fluor inactive, TSHR agonist -5% and Resorufin autofl inactive.
CO[C@H]1COC(=O)CCC[C@@H](C)[C@H](OC)COC(=O)[C@H]2CCCN2C(=O)C/C=C\[C@@H]1C was read as AID923 -1.3%[11.5 µM] and TSHR agonist -9%[11.4 µM].

(continued)
COc1ccc(NCc2nnc(SCC#N)n2-c2ccccc2OC)cc1 was read as A647 fluor 6e-08, AID923 1.4%, A488 fluor inactive, TSHR agonist -2% and Resorufin autofl inactive.
`O=C1[C@H]2[C@H]3[C@H](O)[C@H](O)C/C(=N/OC[C@@H](O)COCc4ccco4)[C@H]3CC[C@@H]2C(=O)N1c1cccc(Oc2ccccc2)c1` gave AID923 0.1%[11.5 µM] and TSHR agonist -3%[11.4 µM].
`O=C(Nc1ccc2c(c1)OCO2)C(c1ccccc1)N1CCN(C(=O)c2ccco2)CC1` (centres undefined) gave A647 fluor 2e-08, AID923 0.7%, A488 fluor inactive, TSHR agonist 11% and Resorufin autofl inactive.
`O=C(Nc1ccccc1C(F)(F)F)c1cc(S(=O)(=O)N2CCC3(CC2)OCCO3)ccc1F` gave A647 fluor 1e-09, AID923 0.5%, A488 fluor inactive, TSHR agonist 24% and Resorufin autofl inactive.
For O=C(c1ccc(COc2ccccc2Cl)o1)N1CCN(Cc2ccc3c(c2)OCO3)CC1 the results were A647 fluor 4e-09, AID923 1.5%, A488 fluor inactive, TSHR agonist inconclusive and Resorufin autofl inactive.
`COc1ccc(NC(=O)CN2CCN(S(=O)(=O)c3ccc(C(C)C)cc3)CC2)cc1OC` gave A647 fluor 5.5e-09, AID923 -1.3%, A488 fluor inactive and Resorufin autofl inactive.
`c1ccc(Cn2ncc3c(N4CCCCC4)ncnc32)cc1` gave AID923 0.5% and TSHR agonist 0%.
Screening CC(C)(CO)NC(=O)C(c1ccccc1)c1ccccc1 returned A647 fluor 4.6e-08, AID923 0.4%, A488 fluor inactive, TSHR agonist 6% and Resorufin autofl inactive.
COc1ccccc1C1C(C(=O)c2sc(C)nc2C)=C(O)C(=O)N1CCN1CCOCC1 (centres undefined) was read as A647 fluor 2e-08, AID923 4.3%, A488 fluor inactive, TSHR agonist -2% and Resorufin autofl inactive.
CCN(CC)S(=O)(=O)c1cccc(C(=O)Nc2cc(C)nn2-c2nc(C)cc(C)n2)c1 was read as A647 fluor 2.9e-09, AID923 -0.4%, A488 fluor inactive and Resorufin autofl inactive.
`COc1cccc(-c2cc(C(=O)Nc3cc(OC)c(OC)c(OC)c3)no2)c1` gave A647 fluor 1e-09, AID923 0.1%, A488 fluor inactive, TSHR agonist inconclusive and Resorufin autofl inactive.
For CCOC(=O)N1CCN(S(=O)(=O)c2cccc3ccc(C)nc23)CC1 the results were A647 fluor 1e-09, AID923 -0.6%, A488 fluor inactive, TSHR agonist 2% and Resorufin autofl inactive.
`CCCn1c(C)nc2c(NCCN3CCCC3)nc(C)nc21` gave AID923 2.5% and TSHR agonist inconclusive.
For Cc1nn(-c2ccccc2)c2sc(-c3n[nH]c(=S)o3)cc12 the results were A647 fluor 1e-09, AID923 1.1%, A488 fluor inactive, TSHR agonist 27% and Resorufin autofl inactive.
`COc1ccc(C2N(c3ccc(OC)cc3)C(=O)C3CCCN32)cc1` (centres undefined) gave AID923 1.2% and TSHR agonist 9%.
COc1ccc(OC)c(C2=Nn3c(nnc3C3CCCCC3)SC2)c1 was read as A647 fluor 3.5e-08, A488 fluor inactive and Resorufin autofl inactive.
Screening COC(=O)c1ccc(CSc2nc3c(c(=O)n2-c2ccccc2)SCC3)o1 returned AID923 -4.3% and TSHR agonist -5%.
`COC(=O)c1ccc(OCCn2cnc3ccccc3c2=O)cc1` gave A647 fluor 7.1e-09, AID923 -0.2%, A488 fluor inactive, TSHR agonist 9% and Resorufin autofl inactive.
`Cn1c(=O)n(C)c2cc(S(=O)(=O)NCc3ccco3)ccc21` gave A647 fluor 1.2e-08, AID923 1.6%, A488 fluor inactive, TSHR agonist inconclusive and Resorufin autofl inactive.
COC(=O)c1sc(N2C(=O)C(O)=C(C(=O)c3ccc(C)o3)C2c2ccc(F)cc2)nc1C (centres undefined) was read as AID923 2.9% and TSHR agonist -1%[11.4 µM].
Screening CCc1cc2c(nc1CC)CCN(CC/C(C)=N/OC[C@@H](O)COCc1ccco1)C2 returned AID923 -4.5%[11.5 µM] and TSHR agonist 1%[11.4 µM].
Screening CN(C)C(=O)Nc1cnc2ccccc2c1 returned AID923 7.3% and TSHR agonist 11%.

From PubChem BioAssay

Not all compounds are listed. The share of hits here may be higher or lower than overall.
